HIV Env fusion: blocks HIV Env-driven cell-cell fusion. 360,000 tested, 1.1% active. inhibition, % at 12.3 µM. HeLa-JRFL Env/CEM21 cell fusion, luciferase;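 active means mean replicate inhibition score of at least 50 and every replicate individually at or above 50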;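 further: 0% = plate neutral controls and 100% = maraviroc near 300 nM; one replicate is shown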
PABP polyA inh: blocks human PABP binding to poly(A) RNA; P11940; fluorescence polarization; inhibition, % at 35 µM; 290,000 tested, 1% active; AID 2014;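 active means 50% or more with normal probe brightness, or confirmed in later tests; about a fifth of its hits are not listed in these tables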;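 further: calls also rest on retests at 20 µM and on dose response follow-up; controls were probe without protein and protein plus probe with vehicle; some compounds called inactive have numbers as strong as hits; many hits fall short of the cut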
Target sequence (P11940 whole entry, looked up): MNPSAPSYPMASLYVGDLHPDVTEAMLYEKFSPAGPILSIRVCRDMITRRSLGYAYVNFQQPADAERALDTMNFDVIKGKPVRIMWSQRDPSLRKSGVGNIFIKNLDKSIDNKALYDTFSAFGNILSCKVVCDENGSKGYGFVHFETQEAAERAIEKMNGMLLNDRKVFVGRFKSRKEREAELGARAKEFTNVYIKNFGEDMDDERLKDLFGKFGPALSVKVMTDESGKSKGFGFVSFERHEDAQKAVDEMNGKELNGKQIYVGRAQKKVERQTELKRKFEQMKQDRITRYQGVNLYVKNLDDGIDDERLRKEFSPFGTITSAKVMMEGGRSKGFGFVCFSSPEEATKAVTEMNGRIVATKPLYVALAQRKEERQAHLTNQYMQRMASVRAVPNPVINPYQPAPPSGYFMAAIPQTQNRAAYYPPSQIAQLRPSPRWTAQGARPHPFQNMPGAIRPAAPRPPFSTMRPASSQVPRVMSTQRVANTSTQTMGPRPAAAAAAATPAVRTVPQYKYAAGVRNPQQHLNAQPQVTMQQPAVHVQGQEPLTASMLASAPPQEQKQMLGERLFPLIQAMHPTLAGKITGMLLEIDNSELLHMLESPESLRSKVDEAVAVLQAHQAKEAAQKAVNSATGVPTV
Yeast UUG start: modulators of start codon recognition fidelity in yeast; S. cerevisiae UUG-firefly luciferase reporter, luminescence/redox ratio; activity score, % at 18.7 µM; 350,000 tested, 0.13% active;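 active means replicate mean at a twofold rise or more, about +100% in these data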;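 further: firefly luciferase made from a UUG start codon reports start codon fidelity; reporter light over untreated wells divided by growth signal over untreated wells; some hits fall short of that in this replicate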
CSC inhib: blocks cancer stem cells. cancer stem cell-like cells viability, luminescence. inhibition, % at 7.5 µM. 300,000 tested, 1.1% active;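 active means mean at 75% or more and at least half the replicates too; tested in HMLE shEcad cells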;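 further: 0% = median of negative and 100% = median of positive control wells; the first replicate is given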
eIF4H inh: inhibitors of RNA binding by human eIF4H | Q15056 | eIF4H fluorescence polarization binding assay | inhibition, % at 35 µM | 290,000 tested, 0.94% active | AID 2012;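 active means 50% or more with normal probe brightness, or confirmed in later tests; about a fifth of its hits are not listed in these tables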;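 further: calls also rest on retests at 20 µM and on dose response follow-up; 0% = protein and probe with vehicle and 100% = probe without protein; strong numbers were not always called active; many hits fall short of the cut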
MT1-MMP act inh: inhibitors of human MT1-MMP activation; 360,000 tested, 0.061% active; P50281; GFP/RFP ratio change, % at 20 µM; HT1080 RFP-PRO-GFP cells, GFP/RFP ratio fluorescence, overnight; percent of plate control window, DMSO zero; AID 651647;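 active means GFP/RFP ratio change of at least 30% with cell ATP level not reduced by more than half and red fluorescence within 50% of control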; further: strong numbers were not always called active
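Test system: HT1080 cells expressing an RFP-PRO-GFP fluorescent reporter construct / Compound dosing: single-point 20 µM compound, 1% DMSO / Schedule: cells overnight before dosing, compound overnight, 37 °C, 5% CO2 / Evaluation: GFP/RFP fluorescence ratio / Control set: DMSO and RFP-L50D-GFP cell wells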
Rce1 inhib: inhibitors of yeast Ras-converting enzyme | yeast membranes, quenched prenylated peptide cleavage fluorescence | calls only | 290,000 tested, 0.27% active;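 active means fall in fluorescence gain of 50% or more versus controls, with final raw signal at or below 3038400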;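 further: plate controls were neutral control wells for no effect and wells lacking membranes for full effect; tested at 10 µM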
Target sequence (Q03530 whole entry, looked up): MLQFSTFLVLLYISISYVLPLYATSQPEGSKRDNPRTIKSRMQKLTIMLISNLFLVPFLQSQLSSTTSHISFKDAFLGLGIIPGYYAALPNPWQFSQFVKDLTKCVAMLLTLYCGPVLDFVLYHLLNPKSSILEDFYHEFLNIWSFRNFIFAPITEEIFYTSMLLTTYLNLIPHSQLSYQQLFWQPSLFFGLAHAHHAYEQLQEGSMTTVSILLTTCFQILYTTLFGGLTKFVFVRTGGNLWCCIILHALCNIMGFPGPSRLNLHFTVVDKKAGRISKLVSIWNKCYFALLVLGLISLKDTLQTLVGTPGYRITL
eIF4H inh retest: further read-out of eIF4H inh, marked with its call; inhibition, %; compound at 20 µM; confirmation average;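 mean of two retest wells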
PABP polyA inh retest: second read-out of PABP polyA inh, no call of its own (marks repeat the call); inhibition, %; compound at 20 µM; confirmation repeats;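 mean of two retest wells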
MT1-MMP act inh RFP: second read-out of MT1-MMP act inh, no call of its own (marks repeat the call); RFP signal change, %; measured here: RFP expression control read;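 0 = vehicle wells; hits needed this value within 50% of zero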
An asterisk follows results filed as active; i = inactive; x = not tested or not shown.

SMILES	HIV Env fusion	PABP polyA inh	Yeast UUG start	CSC inhib	eIF4H inh	MT1-MMP act inh	MT1-MMP act inh RFP	Rce1 inhib	others
CN(C)CCNc1ncnc2c1ncn2[C@H]1CN(Cc2ccc3c(c2)OCO3)C[C@@H](CO)O1	38	x	-18	x	x	0	3	x
COc1cc2c(cc1OC)C(c1ccccc1)N(C(=O)c1ccco1)CC2 (stereo unspecified)	9	-11	17	x	-9	-6	-1	i
C[C@H](NC(=O)c1[nH]cnc1C(=O)Nc1ccccc1)c1ccccc1	-44	x	-1	10	x	12	-1	x
O=C(NC1CCCCCC1)C1C2C=CC3(CN(Cc4cccnc4)C(=O)C13)O2 (stereo unspecified)	x	0	-6	-9	8	-2	3	i
O=C(NCCCc1ccccc1)c1ccc([N+](=O)[O-])cc1Cl	-20	1	-17	-7	-12	2	-3	i
COc1ccc(NC(=O)c2ccccc2SC)cc1OC	x	1	-9	1	-4	-2	1	i
CCCNS(=O)(=O)c1ccc(CCC(=O)N2CCN(c3ccc(F)cc3)CC2)cc1	35	-5	x	x	-3	0	-2	i
CCOC(=O)N1CCN(C(=O)C2CCN(Cc3ccc(OC)cc3OC)CC2)CC1	-18	-4	x	5	-9	-4	3	i
CCCn1c2ccc(/C(C)=N\O)cc2c2cc(/C(C)=N/O)ccc21	x	0	x	-2	-13	11	4	i
O=C(c1ccc2ccccc2n1)N1CCN(S(=O)(=O)c2ccccc2)CC1	x	x	-7	-3	x	-1	-1	x
Cc1cccc(N2CCN(c3ccc4cc(S(=O)(=O)N5CCCCC5)ccc4n3)CC2)c1C	4	6	-12	9	10	-3	-20	i
COc1cccc(S(=O)(=O)Nc2ccc3c(c2)OCCO3)c1	-17	6	-21	x	-13	2	-11	i
CN(CC(=O)Nc1ccc(F)cc1)C(=O)c1ccncc1	-9	16	-1	17	12	-1	2	i
Cc1[nH]n(-c2ccc(Cl)cc2)c(=O)c1C(=O)c1ccccc1	5	9	-11	-10	-18	-10	-2	i
CCCCn1c(N)c(N(CC(C)C)C(=O)c2cccc(S(=O)(=O)N(C)c3ccccc3)c2)c(=O)[nH]c1=O	7	x	11	-8	x	-5	0	i
COc1ccc(CC(=O)OCC(=O)NCCNC(=O)COC(=O)Cc2ccc(OC)cc2)cc1	-2	x	0	-8	x	3	7	i
COc1ccc(C(CC(=O)N2CCCC2)c2c(OC)cc(OC)c3ccc(=O)oc23)cc1 (stereo unspecified)	6	4	-22	6	9	-4	0	i
COc1cc(N=Nc2ccccc2C(=O)O)ccc1O	7	3	-16	-2	15	-17	1	i
CN(CC(=O)Nc1ccccc1Cl)C(=O)CCSc1ccc(F)cc1	2	x	-10	4	x	2	-9	i
O=C(COc1ccccc1Cl)Nc1ccc2oc(=O)ccc2c1	-7	0	1	-9	-2	2	-2	i
Clc1ccc2nc(C3CCN(Cc4nnnn4C4CCCCC4)CC3)[nH]c2c1	36	-6	-14	4	5	3	-2	i
Cc1cc(=O)[nH]c(SCC(=O)NC2CCCCC2)n1	12	9	-22	4	-3	-1	0	i
Cc1ncc(CO)n1Cc1ccc(Cl)cc1	-2	x	-7	x	x	-5	-3	x
O=C(CNC(=O)N1CC(=O)Nc2ccccc21)Nc1ccccc1	-15	9	1	5	0	3	7	i
Cc1cc(=O)oc2cc(OCC3CC(c4ccccc4Cl)=NO3)ccc12 (stereo unspecified)	-82	1	-24	42	-3	10	-2	i

The list goes on; it opens with the two that closed the last part.
SMILES	HIV Env fusion	PABP polyA inh	Yeast UUG start	CSC inhib	eIF4H inh	MT1-MMP act inh	MT1-MMP act inh RFP	Rce1 inhib	others
O=C(CNC(=O)N1CC(=O)Nc2ccccc21)Nc1ccccc1	-15	9	1	5	0	3	7	i
Cc1cc(=O)oc2cc(OCC3CC(c4ccccc4Cl)=NO3)ccc12 (stereo unspecified)	-82	1	-24	42	-3	10	-2	i
COc1cccc(/C=N/n2c(C)nc3ccccc3c2=O)c1O	x	18	-20	-2	0	4	4	i
CCOC(=O)C1CCN(C(=O)c2sc3nc(-c4ccccc4)cn3c2C)CC1	-8	1	-4	-3	-10	6	3	i
COc1cccc(C(=O)C2CCCN(C(=O)CCc3scnc3C)C2)c1 (stereo unspecified)	6	7	x	3	3	0	-12	i
CCCCN(Cc1ccco1)S(=O)(=O)c1csc(C(N)=O)c1	10	-2	3	-7	-6	2	2	i
O=C(OCC(=O)N1CCCc2ccccc21)c1cc(S(=O)(=O)N2CCOCC2)ccc1Cl	-2	x	15	7	x	-1	-3	i
CCCN(CC(=O)Nc1ccccc1OC)C(=O)c1ccc(COc2ccccc2)o1	26	x	x	-3	x	3	-10	x
O=C(CCC1CCCN(C(=O)c2cc3ccccc3o2)C1)NCc1ccc(F)c(F)c1 (stereo unspecified)	1	x	13	-3	x	2	-3	i
CCN(CC(=O)NCC(=O)Nc1cccc(C)c1C)Cc1ccccc1	1	-17	-18	0	1	-2	-1	i
O=C(OC1CCOC1=O)c1ccc(S(=O)(=O)N2CCCCCC2)cc1 (stereo unspecified)	-74	7	1	-11	-3	2	2	i
C/C(=N\NC(=O)C1CC1c1ccccc1)c1cccs1 (stereo unspecified)	x	-7	-27	4	-1	3	3	i
CC(C)N1CCN(Cc2cccc3nonc23)CC1CCO (stereo unspecified)	11	3	-11	-6	-6	1	3	i
Cc1cc2oc(C(=O)Nc3nonc3C)c(C)c2cc1Cl	-48	x	-3	12	x	6	8	i
CC(=O)/C(=N\Nc1ccc(Cl)cc1Cl)Sc1cccc2cccnc12	3	6	-5	50	4	7	-15	i
Cc1ccn(CC(=O)N2CCCC(N3CCN(c4cccc(C(F)(F)F)c4)CC3)C2)n1 (stereo unspecified)	-25	x	-14	x	x	4	5	x
c1ccc(Cc2nc3ccccc3s2)cc1	-10	x	-9	x	x	-1	1	x
CCOC(=O)CCCCC(=O)c1[nH]c(=O)[nH]c1CSCCO	x	4	-6	9	-9	0	4	i
Cn1c(=O)cc(SCC(=O)NCCCN2CCN(c3ccccc3F)CC2)c2ccccc21	-45	-1	-4	-9	2	2	0	i
COc1cccc(CC(=O)Nc2cc(C(F)(F)F)ccc2N2CCCC2)c1	13	0	-14	0	-4	-1	-5	i
CSCC(=O)N1CCCC(CNC(=O)c2ccc(-c3ccccc3)cc2)C1 (stereo unspecified)	-1	5	4	-12	-2	-1	-9	i
NS(=O)(=O)c1ccc(CCNS(=O)(=O)c2ccc3c(c2)NC(=O)CO3)cc1	0	2	x	1	6	0	5	i
CCc1nnc(NS(=O)(=O)c2ccc(NC(=S)Nc3ccc(F)cc3)cc2)s1	-8	3	x	1	-11	-1	2	i
CCN(CC)C(=O)Cn1nc(C)c2ccccc2c1=O	x	-12	-10	-8	5	3	2	i
O=C(CNC(=O)c1ccc(Cl)c([N+](=O)[O-])c1)NCC1CCCO1 (stereo unspecified)	6	8	-9	7	-4	2	0	i
Cc1n[nH]c(=S)n1/N=C/c1c(O)ccc2ccccc12	51	10	-14	4	-8	0	1	x
Cc1cc(OCC(=O)NCCc2ccc(S(N)(=O)=O)cc2)c2c(C)c(C)c(=O)oc2c1	-5	x	-21	-14	x	0	-4	i
Remaining list, next part.
SMILES	HIV Env fusion	PABP polyA inh	Yeast UUG start	CSC inhib	eIF4H inh	MT1-MMP act inh	MT1-MMP act inh RFP	Rce1 inhib	others
O=C(CN1C(=O)COc2ccc(Cl)cc21)Nc1ccccn1	6	1	-18	-9	-7	-2	3	i
O=C(COc1ccc(F)cc1)N/N=C/c1cccc2cccnc12	8	-12	8	12	10	3	2	i
COc1ccccc1N1CCN(C(=O)[C@@H]2CCCN2C2=NS(=O)(=O)c3ccccc32)CC1	-7	x	13	x	x	-1	3	x
Cc1ccc(S(=O)(=O)NC2=C(N3CCN(Cc4ccccc4)CC3)C(=O)c3ccccc3C2=O)cc1	15	18	13	8	-5	7	1	i
O=S(=O)(Cc1ccccc1)NCC1CCCO1 (stereo unspecified)	-70	6	-27	23	-9	0	2	i
CCC(NS(=O)(=O)c1ccc2c(c1)Cc1cc(S(=O)(=O)NC(CC)C(=O)O)ccc1-2)C(=O)O (stereo unspecified)	-9	30	-1	-1	8	4	2	i
Cc1cccc(NC(=O)CSc2nnc(-c3ccncc3)n2CC2CCCO2)c1 (stereo unspecified)	-5	2	-11	-6	4	1	0	i
Cc1cc(C)c(C)c(S(=O)(=O)N2CCC(C(=O)Nc3ccncc3)CC2)c1C	-11	-8	-1	3	-7	-6	-5	i
COC(=O)NC1CCC(NC(=O)OC)CC1 (stereo unspecified)	4	-8	-25	-12	0	-4	1	i
COc1ccc(-n2nc3c(c2NC(=O)C(C)Oc2ccccc2)CS(=O)C3)cc1 (stereo unspecified)	-14	-3	-17	1	-8	-5	-3	i
CCOC(=O)c1sc(=NC(=O)COc2ccccc2)n(C)c1C	-22	-2	0	-3	-8	0	7	i
CCOc1cc(/C=C/C(=O)N(CC)CC(=O)NCc2cccs2)cc(Cl)c1OC	36	x	0	-11	x	4	2	i
CCOC(=O)C1=C(C)S/C(=C\N(C)C)C1=O	x	51	0	2	20	2	5	i	eIF4H inh retest=17;PABP polyA inh retest=17
CCOc1ccc(N2C(=O)CC(NNc3nc4ccccc4s3)C2=O)cc1 (stereo unspecified)	-2	2	-13	-4	-2	0	2	i
Cc1[nH]c(C)c(S(=O)(=O)N2CCN(c3cccc(C(F)(F)F)c3)CC2)c1C(=O)N1CCCC1	29	4	-3	-4	-4	-1	-1	i
Cc1nc(N2CCOCC2)nc(N2CCCCC2C)c1[N+](=O)[O-] (stereo unspecified)	10	14	x	-12	4	3	0	i
O=C(NCCCl)C1Cc2c(ccc3ccccc23)O1 (stereo unspecified)	-5	-4	26	-9	4	2	9	i
CCOC(=O)N1CCN(C(=O)CN(C2CCCCC2)S(=O)(=O)c2c(C)cc(C)cc2C)CC1	-2	1	-9	-1	-3	-17	-12	i
Cc1nn(CC(=O)Nc2ccc3c(c2)OCO3)c(C)c1Cl	-2	6	3	-1	2	-4	-2	i
Cc1ccc(CCNC(=O)C2CCC(=O)N(Cc3ccccc3F)C2)o1 (stereo unspecified)	32	1	4	-4	-5	-2	2	i
CCN(CC)CCn1c2c(c(SCC(=O)Nc3ccc4c(c3)OCCO4)nc1=O)CCCC2	-5	x	-2	-12	x	-3	3	i
COc1ccc(C(=O)O/N=C2\CCCc3nonc32)cc1	-24	-6	-16	-4	-2	2	4	i
CC(=O)NCCCNc1ccc([N+](=O)[O-])cc1	-1	-1	x	-3	-9	2	-4	i
CN(C)c1ncnc2c1NC1=C(S2)C(=NCCCC(=O)O)CC(C)(C)C1	x	14	x	-5	2	-7	2	i
Cc1cc(=O)[nH]c(N/N=C/c2c(C)nn(-c3ccc(F)cc3)c2Cl)n1	13	-2	-15	14	-10	-4	-13	i
Cc1nc2cc(N)ccc2n1-c1ccccc1	-10	-8	x	1	2	5	8	i
Cc1ccc(-c2nc(C(F)(F)F)cc(=O)[nH]2)cc1	-10	5	x	4	5	-1	-1	i
COc1cc2c(cc1OC)CN(C(=O)CCNC(=O)c1ccccc1Cl)CC2	-3	x	-18	-10	x	2	2	x
COc1ccccc1CNC(=O)C1CCCN(S(=O)(=O)c2cccc3nonc23)C1 (stereo unspecified)	-5	10	x	-12	-18	-1	4	i
CCCCNC(=O)c1ccccc1NC(=O)CCSc1ccccc1	x	4	x	-13	2	-1	-2	i

Four structures already listed, sorted by SMILES length, low to high:
SMILES	HIV Env fusion	PABP polyA inh	Yeast UUG start	CSC inhib	eIF4H inh	MT1-MMP act inh	MT1-MMP act inh RFP	Rce1 inhib	others
CC(=O)NCCCNc1ccc([N+](=O)[O-])cc1	-1	-1	x	-3	-9	2	-4	i
CCCCNC(=O)c1ccccc1NC(=O)CCSc1ccccc1	x	4	x	-13	2	-1	-2	i
Cc1nc(N2CCOCC2)nc(N2CCCCC2C)c1[N+](=O)[O-] (stereo unspecified)	10	14	x	-12	4	3	0	i
Cc1cccc(NC(=O)CSc2nnc(-c3ccncc3)n2CC2CCCO2)c1 (stereo unspecified)	-5	2	-11	-6	4	1	0	i
